# NPYLR7 ag – mosquito NPYLR7 agonism; HEK293T NPYLR7/Galpha15, GCaMP6s calcium fluorescence; activation, % at 10 µM; hit rate 0.15% among 270,000; in the data active means activation above about 40%;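 further: 0% = vehicle and 100% = reference agonist at the receptor; some compounds past the cut are filed as inactive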
# NPYLR7 ag max-min – further read-out of NPYLR7 ag, marked with its call; activation, %; measured here: Max-Min RFU normalised activation; some inactives read as strong as hits;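 span of the calcium signal over five minutes; 0% = vehicle and 100% = native peptide agonist; compound fluorescence can raise it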
# * marks the source's active call; other numbers are inactive results; & = joins results of further samples. This is a subset; rates above refer to the full screens.
SMILES,NPYLR7 ag,NPYLR7 ag max-min
CC(=O)Nc1cc(C)c(C)c(C)c1,-6,-6
CCOc1ccc(NC(=O)CSc2nnc(NC(=O)c3c(F)cccc3Cl)s2)cc1,-5,3
Cc1nn(C)cc1C(=O)N(C)Cc1ccccc1,2,1
CC(c1ccc(-c2nc3ccccc3n2CCO)cc1)N1CCOCC1 (stereo unspecified),2,2
Oc1ccc(C2=Nn3c(nnc3-c3ccc(Br)cc3)SC2)cc1O,4,4
CN(Cc1ccc2ccccc2n1)Cc1cccc2c1OCO2,11,9
Cc1cccc(NC(=O)N2CCN(c3cc(-n4ccnc4)ncn3)CC2)c1C,-13,-18
Cc1csc(NC(=O)c2cccc(CN3CC[C@H](O)C3)c2)n1,17,14
CCN(CC)[P+](N)(c1c(C)nc2ccccn12)N(CC)CC,21,16
CCNC(=O)COc1cc(Cl)ccc1Cl,10,17
CC1CC(=O)Nc2ccccc2N1C(=O)CN(C)Cc1cccc(C#N)c1 (stereo unspecified),-6,-8
COc1ccc(-c2csc(N/N=C\c3ccco3)n2)cc1,2,1
CC(C)c1cccc(C(C)C)c1NC(=O)CN1C(=O)C2CCCN2C1=O (stereo unspecified),1,2
S=C(NC1CC1)N1CCCC1C1CCCCC1 (stereo unspecified),-13,-12
CCn1c(CC2CCN(C(=O)c3ccccc3NC(C)C)CC2)n[nH]c1=O,-22,-19
CC(C)Cn1cncc1CNC(=O)c1cnn2ccn(C)c12,-8,-8
COc1ccc(-c2nccn2CCc2nc(-c3ccccn3)no2)cc1O,11,1
O=C(O)C1CCCN(S(=O)(=O)c2ccc(Br)s2)C1 (stereo unspecified),8&0,7&4
c1cc(N2CCCCC2)ccc1CCNc1cncc2nnnn12,-7,-14
O=C(CCCn1cncn1)N1CC[C@@H](c2ccc3ccccc3c2)[C@H](O)C1,-1,-4
O=C(O)c1cn(-c2ccc(Br)cc2Cl)nn1,0,-2
Cc1ncc(CN2CCCC(C(=O)Nc3cccc(-c4ccc(F)cc4)c3)C2)s1 (stereo unspecified),-1,-4
COc1ccccc1CN(CCc1c[nH]c2ccccc12)Cc1nc(C(=O)NCc2ccc(F)cc2)co1,21,35
COc1cc(C=C(C#N)S(=O)(=O)c2ccc(Cl)cc2)cc2c1OCCO2,1,1
O=C(Nn1ccc2c(nnc3c(-c4ccccc4)cnn32)c1=O)c1ccccc1Cl,4,3
CNC(=O)CN(CC1CC1)[C@@H]1C[C@@H]2CO[C@H](C(C)C)C[C@@H]2C1,1,12
O=C(CSc1nnc(-c2ccccc2Cl)n1-c1ccccc1F)NCC1CCCO1 (stereo unspecified),7,11
O=C(/C=C/c1ccccn1)N1CCCC(N2CCc3ccccc3C2)C1 (stereo unspecified),18,10
CCOc1ccc(-n2nnc3c(=O)n(CC(=O)N4CCN(c5ccccc5)CC4)cnc32)cc1,11,14
Cc1n[nH]c(C)c1CC(=O)NC1CCC(n2cnnc2)CC1 (stereo unspecified),-1,-3
CCCCCCCC(=O)NC(C)c1nnc(SCc2cccc(OC)c2)n1-c1cc(Cl)ccc1Cl (stereo unspecified),15,18
O=C(CSc1ccccc1)N(Cc1ccccn1)c1nc2ccc(F)cc2s1,-1,-8
COc1cccc(Cn2ccnc2CN(CC2CCCO2)C(=O)c2cccc(F)c2)c1 (stereo unspecified),11,27
CC12C(=O)N(CC(=O)O)C(=O)C1C1C=CC2C1 (stereo unspecified),11,5
COC(=O)c1ccc(C(=O)N(CC(F)F)C2CC2)s1,9,6
CC(C)CN(Cc1ccc2c(c1)CCO2)Cc1cnn(C)c1,0,-5
O=C(CCc1ccc2c(c1)OCO2)N1CCC(CO)(Cc2cccc(F)c2)CC1,3,10
O=C(COc1c(F)c(F)c(F)c(F)c1F)Nc1ccc(-c2onc3c2CCCC3)cc1,2,-1
Cc1ccnc(SCCn2c(Br)nc3c2c(=O)[nH]c(=O)n3C)n1,1,14
C=CCN1C[C@H]2COc3ccc(C)cc3[C@H]2N(C(=O)C(=O)OCC)CCC1=O,1,8
Cc1cc(C)n(-c2ccc(NC(=O)C3CCCCN3C(=O)CCn3cncn3)cc2)n1 (stereo unspecified),6,4
CN1C(=O)N(Cc2cccnc2)C(=O)C12CCN(Cc1ccc(C#CC(C)(C)O)cc1)CC2,18,6
O=C(NN=Cc1ccc([N+](=O)[O-])o1)C1CC1,-7,-8
O=C(Nc1nnc(-c2ccccc2)s1)c1cccc(S(=O)(=O)N2CCCCC2)c1,6,4
Cc1cccc(-c2ncc(CNCCSC(C)(C)C)cn2)c1,1,-1
CSc1ncccc1C(=O)OCc1cc(-c2ccccc2F)on1,-2,-4
Cc1sc(NC(=O)Cc2ccsc2)nc1-c1ccccc1,4,2
CC1(C)CC(CCn2cnnc2)(c2ccccc2)CCO1 (stereo unspecified),1,0
CN(C)c1ccc(/C=C2\C(=O)N(c3ccccc3)N=C2c2ccccc2)cc1,-6,-11
CO[C@H]1C(=O)N(Cc2ccccc2)C2(CCN(C(=O)CC(C)C)CC2)[C@@H]1CO,0,9
CC(=O)c1ccc(NC(=O)N(C)c2c(C)nc3ccc(C(=O)NCCN(C)C)cn23)cc1,20,17
Cc1sc2ncnc(Sc3nnc(CN4CCCC4=O)o3)c2c1C,-1,-2
CS(=O)(=O)c1ccccc1NC(=O)c1ccc(Br)s1,4,9
CCOC(=O)c1nn(-c2ccc(C)cc2)c(=O)cc1OS(=O)(=O)c1ccc2c(c1)OCCO2,0,2
CCC(C(=O)N1CCc2cc(OC)c(OC)cc2C1c1cccc(Cl)c1)c1ccccc1 (stereo unspecified),20,13
CS(=O)(=O)N1CCN(c2nc3ccccc3nc2-c2ccccc2)CC1,10,5
CCOC(=O)c1c(NC(=O)c2cncc(Br)c2)c(-c2ccc(OC)cc2)cn1Cc1ccccc1,14,24
Cc1noc(C)c1CCC(=O)Nc1nc(-c2ccco2)c(-c2ccco2)s1,-1,5
CC(C)Cn1cc(C(=O)NCc2nc(-c3ccccc3)cs2)c(=O)c(C(=O)N2CCCCCC2)c1,11,-1
COc1ccc(CN(CC(C)C)S(=O)(=O)c2ccc(NC(C)=O)cc2)cc1OS(=O)(=O)c1cccc(C(F)(F)F)c1,1,10

# Shown with values under each structure: part of the list above
# Below each compound – NPYLR7 ag, NPYLR7 ag max-min
- CC(=O)Nc1cc(C)c(C)c(C)c1
 : -6, -6
- CCOc1ccc(NC(=O)CSc2nnc(NC(=O)c3c(F)cccc3Cl)s2)cc1
 : -5, 3
- Cc1nn(C)cc1C(=O)N(C)Cc1ccccc1
 : 2, 1
- CC(c1ccc(-c2nc3ccccc3n2CCO)cc1)N1CCOCC1 (stereo unspecified)
 : 2, 2
- Oc1ccc(C2=Nn3c(nnc3-c3ccc(Br)cc3)SC2)cc1O
 : 4, 4
- CN(Cc1ccc2ccccc2n1)Cc1cccc2c1OCO2
 : 11, 9
- Cc1cccc(NC(=O)N2CCN(c3cc(-n4ccnc4)ncn3)CC2)c1C
 : -13, -18
- Cc1csc(NC(=O)c2cccc(CN3CC[C@H](O)C3)c2)n1
 : 17, 14
- CCN(CC)[P+](N)(c1c(C)nc2ccccn12)N(CC)CC
 : 21, 16
- CCNC(=O)COc1cc(Cl)ccc1Cl
 : 10, 17
- CC1CC(=O)Nc2ccccc2N1C(=O)CN(C)Cc1cccc(C#N)c1 (stereo unspecified)
 : -6, -8
- COc1ccc(-c2csc(N/N=C\c3ccco3)n2)cc1
 : 2, 1
- CC(C)c1cccc(C(C)C)c1NC(=O)CN1C(=O)C2CCCN2C1=O (stereo unspecified)
 : 1, 2
- S=C(NC1CC1)N1CCCC1C1CCCCC1 (stereo unspecified)
 : -13, -12
- CCn1c(CC2CCN(C(=O)c3ccccc3NC(C)C)CC2)n[nH]c1=O
 : -22, -19
- CC(C)Cn1cncc1CNC(=O)c1cnn2ccn(C)c12
 : -8, -8
- COc1ccc(-c2nccn2CCc2nc(-c3ccccn3)no2)cc1O
 : 11, 1
- O=C(O)C1CCCN(S(=O)(=O)c2ccc(Br)s2)C1 (stereo unspecified)
 : 8&0, 7&4
- c1cc(N2CCCCC2)ccc1CCNc1cncc2nnnn12
 : -7, -14
- O=C(CCCn1cncn1)N1CC[C@@H](c2ccc3ccccc3c2)[C@H](O)C1
 : -1, -4
- O=C(O)c1cn(-c2ccc(Br)cc2Cl)nn1
 : 0, -2
- Cc1ncc(CN2CCCC(C(=O)Nc3cccc(-c4ccc(F)cc4)c3)C2)s1 (stereo unspecified)
 : -1, -4
- COc1ccccc1CN(CCc1c[nH]c2ccccc12)Cc1nc(C(=O)NCc2ccc(F)cc2)co1
 : 21, 35

# Following part
SMILES,NPYLR7 ag,NPYLR7 ag max-min
NC(=O)C(=O)NC1CCCN(Cc2ccc(F)cc2)C1 (stereo unspecified),2,-1
CN(C)C1(C(=O)NCCn2cnnc2)Cc2ccccc2C1,-6,-7
CCCn1c(=O)c(C(=O)NCCCOC)nn(-c2ccc(OC)c(OC)c2)c1=O,2,13
COCCNc1nccc2[nH]c(-c3cccc(OC)c3F)nc12,-2,-10
CN1CCC2(CC1)CN(C(=O)c1cc(-c3ccc(O)cc3)n[nH]1)CCCN2C,5,5
CCOC(=O)CCC(=O)N1CCN(c2cc(Oc3ccccc3OC)ncn2)CC1C (stereo unspecified),-7,-2
CC1(C)Cc2ccccc2C(CC(=S)Nc2ccccc2)=N1,-10,-15
CC(=O)c1ccc(NN=C(C(N)=O)C2=NC(C)(C)Cc3ccccc32)cc1,-17,-20
Cc1csc(C(C)(C)NCCS(=O)(=O)c2ccc(C#N)cc2)n1,1,-2
CC(OC(=O)c1cc(Br)c[nH]1)C(=O)Nc1ccccc1 (stereo unspecified),6,5
Cn1cccc1C(=O)N1CCN(CC(OCc2c(F)cccc2F)c2ccc(Cl)cc2)CC1 (stereo unspecified),-3,-3
COc1ccccc1C(=O)Nc1ccnn1C1CCN(C(=O)c2ccoc2)CC1,-4,-5
COC(=O)c1cccc(Cl)c1Oc1nc(OC)cc(OC)n1,0,-2
COCCN(Cc1cccc(OS(=O)(=O)c2cccc(C(F)(F)F)c2)c1)C(=O)c1cc(Cl)cc(Cl)c1,-11,-7
O=C(NCc1ccncc1)N1CCc2ccc(Br)cc21,-6,-6
Cc1cc(C(=O)Nc2cc(-c3ccccc3)nn2-c2cccc(F)c2)cc(Cl)n1,27,21
COc1cc(C=NNc2ncnc3sc4c(c23)CCC4)cc(OC)c1OC,2,3
COc1cc(-c2nc(-c3ccc(NC(=O)C(C)C)cc3)cs2)ccn1,-4,-3
O=C(c1cc2cc(F)ccc2[nH]1)N1CCCC(CO)(Cc2cccc(Cl)c2)C1 (stereo unspecified),-9,-13
Cc1occc1C(=O)N1CCCC(N2CCN(c3cccc(Cl)c3)CC2)C1 (stereo unspecified),-4,-6
Cn1c(=O)n(C)c2cc(S(=O)(=O)N3CCc4cc(S(N)(=O)=O)ccc43)ccc21,-10,-10
CC(=O)N1CCN(S(=O)(=O)CCCOc2ccc3c(c2)OCO3)CC1,7,9
CC(OC(=O)C1(C)CC1(Cl)Cl)C(N)=O (stereo unspecified),-2,7
O=C(O)CCC/C=C\C[C@@H]1CO[C@H](C(F)(F)F)O[C@@H]1c1ccccc1O,-16,-22
Cc1ccc2nc(COC(=O)c3cc4c(s3)CCCCC4)cc(=O)n2c1,2,9
COc1cc(N2CCC(O)(c3ccccc3C)C2)ncn1 (stereo unspecified),16,3
O=C(CN1CCC2(CC1)OCCO2)N1N=C(c2ccc(F)cc2)CC1c1ccccc1Cl (stereo unspecified),20,11
COc1cccc(Cn2c(=O)[nH]c3ncc(-c4ccco4)nc32)c1,-5,-10
Nc1cc(Cl)c(NC(=O)c2ccsc2)c(Cl)c1,1,5
O=C(Nc1ccc(Nc2ccccc2)cc1)C1CCCO1 (stereo unspecified),8,1
CCOC(=O)c1[nH]c2ccccc2c1NC(=O)CC,-2,12
CC(c1cccc(-c2ccc(C(N)=O)cn2)c1)N(C)C (stereo unspecified),-3,-3
Cc1cc(N2CCN(C/C=C/c3ccccc3)CC2)nc(SCc2ccc(C(=O)NCc3ccccn3)o2)n1,12,24
Cc1ccccc1Cn1c(=O)n(CC2CCC(C(=O)N3CCOCC3)CC2)c(=O)c2sccc21 (stereo unspecified),4,2
COc1ccc(CN(CC2CCCO2)C(=O)C(C)C)cc1OS(C)(=O)=O (stereo unspecified),24,27
CNC(=O)Cn1c(CO)cnc1SCC(=O)Nc1ccccc1C(F)(F)F,6,6
CCc1csc(CCNC(=O)C2CCC(=O)N(Cc3ccccn3)C2)n1 (stereo unspecified),-3,-4
CC(C)Oc1ccccc1Oc1ccc2c(-c3ccccn3)noc2n1,12,8
CC(C)(C)CC(=O)Nc1c(-c2ccc(C(F)(F)F)cc2)nc2ccccn12,-1,5
COc1ccc(-c2nc(SCCN3CCCCC3)c3c(=O)n(C)c(=O)n(C)c3n2)cc1OC,-2,-5
COc1cccc(-c2cnnc(NCCc3nc(C)cc(C)n3)n2)c1,-3,-4
COCCOc1nc(-c2ccc(C(F)(F)F)cc2)n(-c2cccc(NC(=O)Nc3cccc(OC)c3)c2)n1,0,3
Ic1ccc(Nc2nc3nonc3nc2NCc2ccco2)cc1,1,0
Cc1ccc(O)c(C2=Nc3ccccc3C2(C)C)c1,-10,-19
Cc1ccn2c(=O)c(C(=O)NCCCOC(C)C)c(O)nc2c1,2,10
CCN(CC)c1ccc(/C=N\NC(=O)c2cc(C)nc3ccccc23)cc1,15,21
CCCCCC1C(=O)CCC1CC(=O)OC (stereo unspecified),-14,-19
O=C1CSC(=O)N1CNc1cccc(Br)c1,5,3
CCN1C(=O)NC(c2ccc(Br)cc2)C(C(=O)OCCOC)=C1C (stereo unspecified),12,12
O=C(Cc1ccc2c(c1)OCO2)N[C@H]1C[C@H]2C(=O)NCC(=O)N2C1,3,1
Cc1[nH]cnc1CN1CCCC(c2nc(-c3ccccc3)no2)C1 (stereo unspecified),-2,-8
CCOc1cc(S(=O)(=O)n2cc(C)nc2-c2ccccc2)c(OCC)cc1C,6,4
CC1CCc2c(sc3ncnc(SC(C)C(=O)c4c(N)n(C)c(=O)n(C)c4=O)c23)C1 (stereo unspecified),5,9

# Full records, looked up by structure. Values in the order: NPYLR7 ag, NPYLR7 ag max-min
# Cc1[nH]cnc1CN1CCCC(c2nc(-c3ccccc3)no2)C1 (stereo unspecified) is listed with -2, -8
# COc1cccc(-c2cnnc(NCCc3nc(C)cc(C)n3)n2)c1 is listed with -3, -4
